# Calb FLC – C. albicans growth inhibition with fluconazole, primary screen, CaCi-2 strain, Alamar Blue fluorescence; C. albicans CaCi-2 (fluconazole-resistant clinical isolate) + fluconazole, 48 h; 0.57% of 300,000 active; growth inhibition, % (no concentration beside the values);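 active means most replicates above 75%; inconclusive means exactly half above 75%; inactive means most below 75%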;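 further: all wells also contain fluconazole at 8 µg/ml as a sub-toxic cotreatment; 0% = median of DMSO wells and 100% = median of geldanamycin control wells; wells of about 8 µL received 7.5 nL stock; the first replicate is given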
# Bfl-1 A1 inh – caspase 3/7 activation in MEF A1-2A-BIM cells, primary screen, A1 inhibitor project, cell-based, luminescence, HTS; Caspase-Glo 3/7 luminescence, 3 h; percent of clofoctol response, vehicle zero; 0.066% of 330,000 active; caspase activation, % (concentration not given with the values);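 active means over half of replicate activation scores above 10%, or exactly half above 10 with the replicate mean above 10; inconclusive means replicate mean below 10 yet half the replicates above 10; inactive means over half of replicates below 10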;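 further: wells of about 30 µL received 50 nL stock; many hits fall short of the cut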
# MLL AF4-AF9 inh – inhibitors of AF4 peptide binding to AF9, primary screen, biochemical, AlphaScreen, biotin-AF4 peptide, FLAG-AF9, single point | Protein AF-9 (Homo sapiens), P42568 | inhibition, % at 10 µM | 0.47% of 350,000 active | AID 651704, 2012;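 active means every replicate reaching a set inhibition limit, whatever the replicate mean, cut at about 25% in these data; inconclusive means mean inhibition reaches that limit but some replicates miss it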;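 further: 0% = plate neutral control median and 100% = total signal loss; the record names both 10 and 1 µM as test concentration; the first replicate is given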
# Vif TR-FRET – inhibitors of Vif binding to APOBEC3G peptide, primary screen, biochemical, TR-FRET, GST-Vif 1-94, biotin-A3G peptide, dose response retest (AID 1117319); 0.57% of 260,000 active; inhibition, %; hits with a dose series show IC50 in µM; Virion infectivity factor (Human immunodeficiency virus type 1 group M subtype B (isolate …; TR-FRET GST-Vif / biotin-A3G peptide binding; higher % means a stronger effect; test concentration not given here; strong numbers were not always called active;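 active means above the screen mean plus three standard deviations and confirmed in dose response; inconclusive means results disagree or hit not tested in dose response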;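 further: Vif residues 1-94 fused to GST binding biotinylated APOBEC3G peptide 110-148; 0% = full assay without inhibitor and 100% = GST in place of GST-Vif; retest series ran down from 100 µM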
# LANA-H2B inh – blockers of LANA interaction with H2A/H2B – biochemical, FP readout, HTS, primary screen | Protein LANA1 (Human herpesvirus 8 type P (isolate GK18)), Q9QR71 | cell-free LANA-H2A/H2B peptide, fluorescence polarization | 0.6% of 320,000 active | inhibition, % (test concentration not listed); in the data active means inhibition mostly above about 10%, no sharp cut-off; inactive means mostly below about 6.7%;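 further: stock transfer was 7.5 nL into about 10 µL; 0% = median of vehicle wells and 100% = median of positive control wells; one replicate is shown; the record names a cut of 25% in any replicate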
# Target sequence (Q9QR71 whole entry, looked up): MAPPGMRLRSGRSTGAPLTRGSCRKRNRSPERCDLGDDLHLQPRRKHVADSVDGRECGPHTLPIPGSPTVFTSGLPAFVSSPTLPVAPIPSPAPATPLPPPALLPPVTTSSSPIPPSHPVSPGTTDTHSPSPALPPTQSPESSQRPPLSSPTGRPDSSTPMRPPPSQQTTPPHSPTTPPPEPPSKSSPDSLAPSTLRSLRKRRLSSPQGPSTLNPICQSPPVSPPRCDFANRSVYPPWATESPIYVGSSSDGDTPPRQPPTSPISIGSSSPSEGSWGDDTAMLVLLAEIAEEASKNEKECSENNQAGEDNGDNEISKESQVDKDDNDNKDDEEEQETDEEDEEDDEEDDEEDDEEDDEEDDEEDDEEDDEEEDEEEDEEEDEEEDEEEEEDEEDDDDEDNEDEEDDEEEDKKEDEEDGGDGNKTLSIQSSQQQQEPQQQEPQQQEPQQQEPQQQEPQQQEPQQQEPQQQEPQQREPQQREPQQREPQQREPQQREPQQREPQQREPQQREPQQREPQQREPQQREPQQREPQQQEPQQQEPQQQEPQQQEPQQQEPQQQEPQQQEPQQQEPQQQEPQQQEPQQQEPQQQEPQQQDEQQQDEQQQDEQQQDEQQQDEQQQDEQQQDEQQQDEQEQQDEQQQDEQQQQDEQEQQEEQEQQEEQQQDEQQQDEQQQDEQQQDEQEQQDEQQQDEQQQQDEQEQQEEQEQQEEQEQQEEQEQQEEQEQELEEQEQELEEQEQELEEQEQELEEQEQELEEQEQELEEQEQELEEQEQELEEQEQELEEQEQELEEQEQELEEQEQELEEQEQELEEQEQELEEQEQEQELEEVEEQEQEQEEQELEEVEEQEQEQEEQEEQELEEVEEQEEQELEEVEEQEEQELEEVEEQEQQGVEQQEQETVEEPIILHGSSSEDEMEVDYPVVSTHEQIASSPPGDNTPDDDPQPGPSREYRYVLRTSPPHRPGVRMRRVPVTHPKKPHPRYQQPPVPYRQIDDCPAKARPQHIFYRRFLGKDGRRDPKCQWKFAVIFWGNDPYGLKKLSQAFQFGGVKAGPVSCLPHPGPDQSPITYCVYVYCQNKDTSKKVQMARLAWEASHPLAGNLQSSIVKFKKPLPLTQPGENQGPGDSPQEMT
# RanGTP-Impb inh – inhibitors of RanGTP-importin-beta interaction, primary screen, biochemical, FRET, CFP-Ran, YFP-importin-beta, homogeneous | Ran GTPase (GTP-bound) - importin-beta complex | cell-free CFP-Ran/YFP-importin-beta FRET ratio | 1.1% of 300,000 active | inhibition, % (concentration not given with the values);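 active means most replicates above 15%; inconclusive means exactly half above 15%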;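 further: 0% = DMSO wells and 100% = Ran loaded with GDP instead of GTP; wells of about 40 µL received 100 nL stock; the first replicate is given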
# T cruzi inh – inhibitors of intracellular T. cruzi growth, primary screen, luminescence, NIH3T3 host cells; inhibition, % (concentration not given with the values); T. cruzi beta-gal in NIH3T3, 90 h; 1.4% of 300,000 active;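 active means mean inhibition across valid replicates above about 55%, limit read from the data; inconclusive means mean below that limit but half or more replicates reach it; inactive means mean below it, under half of replicates reach it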;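 further: signal also drops with host cell toxicity which is not excluded here; 0% = plate median of DMSO wells and 100% = zero luminescence signal; higher percent means less beta-gal luminescence so fewer parasites; stock transfer was 50 nL into about 50 µL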
# Beta cell apopt – inhibitors of cytokine-induced beta cell apoptosis, primary screen, luminescence | 0.8% of 300,000 active | INS-1E cytokine-induced death, ATP luminescence, 48 h; percent of positive-control rescue, neutral wells zero | protection from apoptosis, % (concentration not given with the values);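 active means all replicates at 75% or more, or half of them and the mean; inconclusive means half reach 75% but not the mean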;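 further: 0% = cytokine-treated negative control wells and 100% = positive control rescue; higher means more ATP so stronger rescue from cytokine killing; wells of about 40 µL received 100 nL stock; the first replicate is given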
# Numbers without * were called inactive; ? = inconclusive; · = no result given; & = joins results of further samples.
# Start of the data: the first two compounds (preview)
molecule	LANA-H2B inh	RanGTP-Impb inh	MLL AF4-AF9 inh	Calb FLC	Bfl-1 A1 inh	T cruzi inh	Vif TR-FRET	Beta cell apopt
COc1ccc(CCNC(=O)CCC(=O)N2CCOc3ccc(Cl)cc32)cc1OC	-0.5	-2.5	-1.9	8	0.0	-1	·	-4
COC(=O)c1ccc(C(=O)NC2CCSc3ccccc32)cc1 (stereo not drawn)	-5.0	-1.3	0.6	0	-0.3	-2	-9%	-2

# Results, from the start:
molecule	LANA-H2B inh	RanGTP-Impb inh	MLL AF4-AF9 inh	Calb FLC	Bfl-1 A1 inh	T cruzi inh	Vif TR-FRET	Beta cell apopt
COc1ccc(CCNC(=O)CCC(=O)N2CCOc3ccc(Cl)cc32)cc1OC	-0.5	-2.5	-1.9	8	0.0	-1	·	-4
COC(=O)c1ccc(C(=O)NC2CCSc3ccccc32)cc1 (stereo not drawn)	-5.0	-1.3	0.6	0	-0.3	-2	-9%	-2
Cc1cc2c(C)nc(-c3ccccc3)nc2o1	0.5	1.6	·	-7	-1.2	-2	5%	-5
COc1ccc(N(CC(=O)N/N=C/c2cccnc2)S(=O)(=O)c2ccc(C)cc2)cc1OC	0.6	-3.2	3.5	-4	0.9	-2	-2%	-7
Cc1cc(C)nc(Nc2n[nH]c(-c3ccc(C(C)(C)C)cc3)n2)n1	1.0	5.8	-0.9	24	-0.4	30	4%	12
C=CCn1c(SCc2ccc(C(=O)NCCO)cc2)nc2ccccc2c1=O	0.5	4.5	-25	-8	-1.0	-1	·	0
CO/N=C/c1c(-c2ccc(Cl)cc2)nc2cc(C)ccn12	-4.4	1.0	8.1	56	-0.2	21	-8%	-2
CCCN1C(=O)/C(=C/c2ccc(C)o2)SC1=Nc1ccc(OC)cc1	3.8	1.7	·	6	-0.6	22	24%	-9
O=C(NC(=S)Nc1cccnc1)c1cccc(Br)c1	0.6	3.1	-0.2	2	-2.4	-9	·	-3
CCOC(=O)C1(Cc2ccc(OC)cc2)CCN(C(=O)CN2CCCCC2=O)CC1	1.8	2.2	0.4	-14	0.3	-4	·	-5
O=C(O)C1CCCCC1C(=O)Nc1ccc2c(c1)OCCO2 (stereo not drawn)	2.2	-1.6	·	-2	-0.2	-7	10%	·
Cc1cc(NC(=O)CSCC(=O)Nc2nc3ccccc3[nH]2)no1	4.2	-2.2	-0.6	·	-0.3	-3	0%	-2
COCCOC(=O)/C(C#N)=C/c1cn(Cc2ccccc2)nc1-c1cccnc1	3.1	-2.1	2.4	18	-0.4	-11	-4%	-9
CCOC(=O)C1(CC)NC(c2ccc(OC)cc2OC)C2C(=O)N(C)C(=O)C21 (stereo not drawn)	-7.6	1.9	-7.6	11	0.3	-11	9%	1
CCC1Oc2ccc(C)cc2N(CC(=O)NCCCN2CCCC2)C1=O (stereo not drawn)	-1.5	3.0	-0.1	-5	-0.5	-2	·	-6
COC(=O)c1ccc(-c2nc(CN3CCN(Cc4cccc(C)c4)CC3)c(C)o2)cc1	-1.6	-2.8	2.1	5	-0.6	57*	0%	-7
CCOC(=O)C1=C(CN2CCN(c3ccc(F)cc3)CC2)NC(=O)NC1c1cccs1 (stereo not drawn)	0.5	5.7	·	17	-0.5	0	6%	2
CCOC(=O)C1=C(N)N2C(=O)C(C)SC2=C(C(=O)OC)C1c1ccccc1OC (stereo not drawn)	-4.9	·	·	·	-0.1	·	4%	-9
Cc1c(C(=O)C(=O)N2CCCc3ccccc32)c2ccccc2n1C	-7.5	0.0	·	-4	-0.1	11	16%	-1
COc1ccccc1-c1cc(C(=O)NCCc2ccccc2)no1	2.0	4.7	·	-10	-0.8	12	1%	19
C=CCNC(=S)NC(CC(=O)OC)c1ccc2c(c1)OCO2 (stereo not drawn)	0.0	2.3	-0.4	9	-1.1	-5	·	-3
COc1ccc(NC(=O)c2ccc3c(c2)CCN3S(=O)(=O)c2ccccc2)c(OC)c1	-1.0	1.9	-4.1	-3	-1.1	7	·	-1
COc1ccc2oc(C)c(C(N)=O)c2c1	-4.8	2.5	-2.4	-8	1.3	-14	31%	-10
COc1ccc(C(=S)N2CCN(c3cccc(Cl)c3)CC2)cc1	-3.6	-0.1	8.7	-6	-1.1	-13	31%&4%	-6
COc1ccc(C(=S)Nc2ccc(N(C)C)cc2)cc1	1.8	-1.6	·	-13	-2.7	10	-1%	-5
O=C(Nc1ccccc1N1CCOCC1)c1cccc2c(Br)cccc12	4.2	0.4	-0.3	14	0.6	10	-6%	5
CCCCCC(=O)N1CC2(CC(c3cccc(NC(=O)CC(c4ccccc4)c4ccccc4)c3)=NO2)C[C@@H]1C(N)=O (stereo partly drawn)	8.9	-2.2	-1.0	9	-0.2	43	-13%	8
CCn1c(C)c(C)c2cc(C(=O)NCCCN3CCCCC3C)ccc21 (stereo not drawn)	-4.1	-2.8	19	4	0.8	13	-3%	-3
Cc1ccc(NS(=O)(=O)c2cc(C(=O)Nc3cccnc3)ccc2C)cc1	-1.1	-0.2	1.7	20	0.7	21	·	2
O=C(O)C1CC1C(=O)Nc1nc2c(Cl)cccc2s1 (stereo not drawn)	-3.8	3.6	-7.3	0	-0.3	-2	·	1
O=C(c1ccc(Cl)c(S(=O)(=O)N2CCCCCC2)c1)N1CCCCC1	-0.1	-2.6	-1.0	2	0.1	13	·	2
N#CCSc1ncccc1-c1nc2ccccc2[nH]1	-0.9	1.8	·	-14	1.2	-15	-3%	16
COC(=O)CCC(=O)N(CCN(C(=O)CCC(=O)OC)c1ccccc1)c1ccccc1	-3.3	4.1	-17	5	0.6	8	0%	-4
COc1ccc(C(=O)N(CC(=O)Nc2sc(C)c(C)c2C(N)=O)C2CCCC2)cc1	-0.8	6.7	4.6	17	0.4	2	·	7
O=C1c2ccccc2C(=O)N1CSc1nnnn1-c1ccccc1	3.5	-2.2	·	2	-1.6	1	-4%	-9
Cn1cccc1Cc1nnc(SCC(=O)Nc2ccc3c(c2)OCCO3)n1CCc1ccccc1	3.0	6.7	9.5	9	-0.6	3	4%&-8%	4
Cc1ccc(C(=O)OCn2nnc3ccccc3c2=O)cc1[N+](=O)[O-]	3.4	2.7	-2.9	-2	0.1	9	9%	-3
CC12CCCCC1c1ccccc1C(=NCC(=O)O)N2 (stereo not drawn)	0.3	-2.0	·	-16	2.3	-6	2%	-3
Cc1nc2ccc(NC(=O)COc3ccccc3[N+](=O)[O-])cc2s1	4.3	-1.3	3.4	-18	-0.6	-2	5%	6
CCOc1cc(CNCc2ccncc2)cc(Cl)c1OC	-3.3	-0.1	3.7	41	-0.4	-7	17%	·
NC(=O)CCCCC(=O)OCCCc1cccs1	-5.5	-2.7	·	-3	-0.5	11	4%	-6
Cc1[nH]c(=O)[nH]c(=O)c1NC(=O)c1sc2nc3c(C)cccc3cc2c1N	·	7.0	·	0	0.3	-10	-12%	-10
O=C(CCc1ccccc1)Nc1cc2c(cc1C(=O)O)OCCCO2	-1.0	·	-2.8	·	-1.5	·	-14%	0
CC(=O)NCCn1c(SCc2ccccc2F)nc2ccccc2c1=O	8.4	-7.7	·	50	-0.6	51	-5%	2
COc1ccc(NC(=O)C2CCCN(S(=O)(=O)c3cccc4cccnc34)C2)cc1 (stereo not drawn)	-2.4	-4.9	-0.2	-9	0.6	-1	-1%	4
Cc1ccc(-n2nnnc2-c2cnn(-c3ccc(F)cc3)c2C(F)(F)F)cc1	-0.2	-1.0	·	3	-1.3	15	·	18
Cc1ccc(OC(=S)Nc2ccc(O)cc2)cc1	2.3	·	·	·	0.6	·	?	-4
CC(C)c1ccccc1NC(=O)COC(=O)c1cc(=O)[nH]c(=O)[nH]1	0.6	1.3	-1.4	32	0.1	-13	17%	1
COc1ccccc1NS(=O)(=O)c1cccc(C(=O)NCC2(N(C)C)CCCCC2)c1	2.1	·	-14	-7	0.3	-7	-8%	-2
Cc1ccc2oc(=O)c3cnn(CC(=O)N(CCN(C)C)Cc4ccco4)c3c2c1	1.2	2.2	-2.9	-1	1.2	-18	-1%	0
COC(=O)c1cn(NC(=O)/C=C/c2cc(OC)ccc2OC)c(=O)c2ccccc12	3.0	-0.2	·	2	0.5	3	2%	7
CCOC(=O)c1cccc(NC(=O)CCc2nnc3ccc(N4CCCCC4)nn23)c1	6.3	4.0	-4.4	33	1.7	10	-3%	3
O=C(CC1C(=O)NCCN1Cc1ccc(F)c(F)c1)NCCCn1ccnc1 (stereo not drawn)	-7.3	0.5	-1.6	6	0.3	-23	12%	1
CCOc1ccc(C(=O)N2CCN(c3ccccc3)CC2)cc1	-4.3	-0.3	0.1	26	-0.3	-7	·	-5
O=C(CSc1nnc(COc2ccc(Cl)cc2)o1)N1CCCC1	-2.2	0.0	9.8	-4	0.8	-15	-5%	-2
O=C1CC(N2CCC(c3nc4ccccc4[nH]3)CC2)C(=O)N1c1cccc(F)c1 (stereo not drawn)	-4.8	0.3	0.8	1	-0.8	-7	?	-3
Cc1ccc(C(=O)N2CCN(c3ccc([N+](=O)[O-])cc3)CC2)o1	-10	-1.1	-6.6	5	-1.5	-3	·	-10
CCn1c(CNc2ccc(Cl)cc2)nnc1SCc1ccc(C)cc1	9.9	?	·	-1	-0.2	11	-5%	-8
Fc1cccc(C2NN=C(c3ccccc3)S2)c1 (stereo not drawn)	-4.0	-0.2	-1.4	-19	-7.8	-7	·	15
COc1ccc(C(=O)NCC(C)(C)N2CCOCC2)cc1S(=O)(=O)N1CCCC1	5.8	·	-1.3	·	0.0	·	·	-8

# (next part)
molecule	LANA-H2B inh	RanGTP-Impb inh	MLL AF4-AF9 inh	Calb FLC	Bfl-1 A1 inh	T cruzi inh	Vif TR-FRET	Beta cell apopt
CCn1cc(CNC(=O)c2ccc(OC3CCN(Cc4ccccn4)CC3)cc2)cn1	1.9	0.9	0.4	-2	0.1	-9	·	8
CC1CCCCN1C(=O)Cn1cnc2c1c(=O)n(C)c(=O)n2C (stereo not drawn)	7.3	-0.7	-3.9	-1	0.2	-3	·	1
CC(NC(=O)NC(=O)c1ccc(Cl)cc1Cl)C1CC1 (stereo not drawn)	1.3	-0.3	-9.8	-12	-0.6	3	·	0
COc1c(C(=O)NCCSC(C)(C)C)ccc2ccccc12	1.4	-3.6	·	-3	0.8	2	·	-4
O=C(O)Cn1cc2c(n1)CCCC2	-1.1	0.0	·	-9	-1.3	1	3%	-9

# Hits appear at their usual frequency, and some 4.3% of all compounds hit somewhere here.
